Compound activity as filed in PubChem BioAssay.
Menin MLL FP FL: displaces fluorescein MLL peptide from human menin; Fluorescence polarization, fluorescein-MLL peptide displacement from menin; FP activity change, % at 61.4 µM; 290,000 tested, under 10 active; inconclusive = falling polarisation curve, or a change in total fluorescence; inactive = total fluorescence flat and polarisation flat or rising; no compound was filed as active; the % refers to the polarisation; negative = inhibition;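 also: % of control where 0% means no effect; inhibitors lower the polarisation; unlabelled MLL peptide was the positive control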
ClpP mod: qHTS Assay for Activators of ClpP. purified B. subtilis ClpP, FRET peptide cleavage, 20 min. 340,000 tested, 1.9% active. Potency, µM (highest dose often 57.5 µM), for inactives: at the top dose activity change, negative = active. ATP-dependent Clp protease proteolytic subunit (Bacillus subtilis (strain 168)), P80244. AID 651965, 2013; active = well fitted falling curve with a large enough effect; inconclusive = small, poorly fitted or top-dose-only effect; inactive = no such curve, though single readings can be large or run the other way; also: potency is read from the fitted curve at half-maximal effect; the source files actives as falling curves though it sought activators and does not explain the sign; nearly all actives have a fitted effect of over 65% in size; many hits overshoot -100%
Target sequence (P80244 whole entry, looked up): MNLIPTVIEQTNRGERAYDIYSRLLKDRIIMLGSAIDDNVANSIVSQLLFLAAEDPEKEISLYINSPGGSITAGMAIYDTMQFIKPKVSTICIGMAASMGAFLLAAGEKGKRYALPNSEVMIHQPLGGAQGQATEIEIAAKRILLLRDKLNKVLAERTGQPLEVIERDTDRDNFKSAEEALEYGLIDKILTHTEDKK
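FRET quenching reversal measured ClpP activation: 10 microg/mL B. subtilis ClpP at pH 8 with the FRET-FV decapeptide, read at 430 nm after 320 nm excitation. The 20-min minus 0-min signal was scaled between DMSO/no-enzyme wells and ADEP (5.8 microM final).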
gsp antagonist: gsp mutant antagonism; gsp-mutant cells, cAMP HTRF, 30 min; control for the full effect not named in the record; Potency, µM (doses to about 76.9 µM), for the others: at the highest dose activity change, negative = inhibition, most hits filed as inhibitors; 340,000 tested, 0.4% active; active = falling curve of any shape with a large fitted effect; inconclusive = falling curve, mostly with a smaller effect; inactive = flat or rising curve; cell line not stated here;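 also: intracellular cAMP measured with PDE inhibitor Ro 20-1724 present during compound exposure; potency is read from the fitted curve at half-maximal effect; % is scaled to controls: 0 for no effect and ±100 for the full control effect; nearly all actives have a fitted effect of over 65% in size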
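Cells, 2000/well, grown 16–24 h in DMEM 10% FBS with 0.5 mg/ml G418, then compounds plus […] (300 uM addition stock), 30 min at 37C. cAMP read by HTRF (cAMP-d2 and anti-cAMP antibody-K in lysis buffer) after 30 min RT.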
gsp ag: gsp mutant agonism; 340,000 tested, 0.13% active; gsp mutant cells, cAMP HTRF, 30 min; control for the full effect not named in the record; Potency, µM (top dose mostly 76.9 µM), inactives show top-dose activation (cAMP increase), hits mostly activators; active = well fitted activation curve with a large enough effect; inconclusive = small, poorly fitted or top-dose-only effect, or another doubt; inactive = no such curve, though single readings can be large or run the other way; cell line not stated here;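 also: phosphodiesterase inhibitor Ro 20-1724 added with compounds to block cAMP breakdown; potency is read from the fitted curve at half-maximal effect; nearly all actives have a fitted effect of over 60% in size; about a fifth of the inactives were tested at one dose only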
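Cells stably selected in G418 were plated at 2000/well, grown 16-24 hr, then given compounds in DMSO with the PDE inhibitor […] (300 uM solution added) for 30 min at 37C; cAMP was read by HTRF.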
TRPV1 potentiator: potentiators of human vanilloid receptor 1 (TRPV1); AID 540277; 320,000 tested, 0.02% active; TRPV1-expressing cells, Fluo-8 calcium influx, capsaicin EC20 potentiation; host cell line not named in the record; control for the full effect not named in the record; potentiation, % at 8.33 µM; Q8NER1; active means potentiation above 80%; inconclusive means 30% to 80%; inactive means below 30%; also: 0% is about no effect
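TRPV1-expressing cells were cultured overnight at 35.5C and loaded with Fluo-8 calcium dye for 40 to 90 min at room temperature. After a 10 s baseline, compound was added and calcium influx was read kinetically for 3 min (ex 480/em 520 nm).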
TRPML1 inh: blocks the human TRPML1 channel; Q9GZU1; TRPML1-inducible cells, Ca2+ dye fluorescence, FDSS; hits give low values; inhibition of EC80 agonist-evoked calcium signal; activity change, negative = inhibition, % (test concentration not listed); 390,000 tested, 0.02% active; AID 624415; in the data active means activity change below about -50%; inconclusive means about -30% to -50%; inactive means above about -30%;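 also: stimulus is agonist 54-4 at its EC80 concentration; % is scaled to controls: 0 for no effect and ±100 for the full control effect; compound concentration not given in the record; the text of the record puts the active cut at -80%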
Target sequence (Q9GZU1 whole entry, looked up): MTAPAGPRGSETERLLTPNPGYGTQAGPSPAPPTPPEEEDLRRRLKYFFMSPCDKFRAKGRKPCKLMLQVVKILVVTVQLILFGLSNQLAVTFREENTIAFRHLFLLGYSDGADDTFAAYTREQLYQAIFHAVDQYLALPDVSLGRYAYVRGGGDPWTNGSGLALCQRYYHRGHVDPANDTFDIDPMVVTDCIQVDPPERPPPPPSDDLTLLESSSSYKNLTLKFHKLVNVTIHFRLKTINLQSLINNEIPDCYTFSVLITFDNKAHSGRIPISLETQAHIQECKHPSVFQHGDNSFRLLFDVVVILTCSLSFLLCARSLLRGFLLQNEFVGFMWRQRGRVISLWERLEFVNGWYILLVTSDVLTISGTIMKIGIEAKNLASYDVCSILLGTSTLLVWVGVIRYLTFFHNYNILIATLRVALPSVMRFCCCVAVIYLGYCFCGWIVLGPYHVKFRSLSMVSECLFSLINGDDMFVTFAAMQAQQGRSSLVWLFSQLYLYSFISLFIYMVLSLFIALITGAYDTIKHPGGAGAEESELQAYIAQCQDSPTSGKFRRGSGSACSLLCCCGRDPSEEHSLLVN
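Tet-induced TRPML1-DL cells loaded with Ca8 no-wash calcium dye were read kinetically on FDSS. Compound addition was followed by EC80 agonist 54-4 (4 uM final); inhibition was read over 110 s.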
Sfp PPTase inh: blocks B. subtilis Sfp PPTase activity; Biochemical Sfp PPTase activity, qHTS; Potency, µM, for the others: max response, negative = inhibition, hits mostly inhibitors; 310,000 tested, 3.5% active; active = well fitted inhibition curve with a large enough effect; inconclusive = small, poorly fitted or top-dose-only effect, or another doubt; inactive = no such curve, though single readings can be large or run the other way;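 also: the enzyme is Sfp with the accession as filed and its product quenches rhodamine fluorescence; potency is read from the fitted curve at half-maximal effect; 0% = enzyme reaction without inhibitor and -100% = no enzyme wells; top concentration of the series not given in the record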
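Compounds were incubated with enzyme (final 15 nM) for 15 min at room temperature before substrate addition started the reaction. Fluorescence at 525 nm excitation, 598 nm emission was recorded immediately and after 30 minutes.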
* hit, by the source's call; ? = inconclusive; nt = no result given; & = joins results of further samples; [ ] = dose if it differs, or a comment.

SMILES	Menin MLL FP FL	ClpP mod	gsp antagonist	gsp ag	TRPV1 potentiator	TRPML1 inh	Sfp PPTase inh
Cn1c(NC(=O)Cc2cccs2)cc(=O)n(C)c1=O	14	-0.1%	2%	3%	nt	-2	-2%
COc1ccccc1/C=C/C(=O)NCC(=O)N/N=C/c1ccccc1	0.5	-21%	1%	9%	27	20	-21%
CCOC(=O)c1c(C)oc2cc(Br)c(OCC(N)=O)cc12	2.6	-1.9%	12%	25%	7	6	20%
Cc1c(CCC(=O)NCCCC(=O)O)c(=O)oc2cc3oc4c(c3cc12)CCCC4	1.7	-18%	-16%	-2%	-19	18	13%
COC(=O)c1cccc(NC(=O)Cc2ccccc2[N+](=O)[O-])c1C	-2.3	-4.0%	4%	3%	-3	-23	-6%
Cc1ccc2sc(NNC(=O)C3COc4ccccc4O3)nc2c1C (stereo not given)	2.4	-3.5%	-11%	?	10	13	?
COc1ccc(-n2c(=O)/c(=C\c3cccs3)s/c2=C(/C#N)C(=O)NCCN2CCOCC2)cc1	12	nt	-7%	-8%[15.4 µM]	0	16	10%
COCCCNC(=O)C(C#N)c1nc2ccccc2nc1N1CCCC1 (stereo not given)	1.9	-9.0%	8%	-22%	1	44	-24%
COc1cccc(NC(=O)C2CCCN2C(=O)NC2CCCCC2)c1 (stereo not given)	nt	nt	-31%	22%[15.4 µM]	3	?	19%
COc1ccccc1-c1ccc([C@@H]2C[C@H]3[C@H](CON3C)CN2C(=O)c2ccco2)cc1	nt	-0.5%	nt	-49%[inhibitor]	nt	26	nt
COC(=O)NCc1cccc(CNC(=O)OC)c1	0.0	-8.1%	-7%	0%	8	7	8%
COc1ccc(-c2cccc(C3CC=CC4C3C(=O)N(Cc3ccccc3)C4c3cc(C)ccc3F)c2)cc1 (stereo not given)	1.1	nt	nt	nt	-8	nt	8%
O=C(CSc1nc(-c2ccco2)cc(C(F)(F)F)n1)NN1CCOCC1	-0.7	nt	3%	5%	-1	-12	18%
Cc1cc(=O)oc2cc(Oc3ccc([N+](=O)[O-])cc3[N+](=O)[O-])ccc12	-0.8	-14%	-10%	2%	3	12	-5%
O=C(Cc1ccccc1)Nc1cccc(N2C(=O)C=CC2=O)c1	5.5	14µM*	9%	17%	-10	-2	-86%
COC(=O)Cn1ccc2cc(S(=O)(=O)N3CCCCC3)ccc21	nt	-8.4%&-8.6%	-4%	-19%	-23	7&4	3%
O=C1N=C2N(CCN3CCCCC3)c3ccccc3N2/C1=C\c1ccc([N+](=O)[O-])o1	-1.4	nt	nt	nt	-3	nt	5%
O=C(CSc1nc2ccc([N+](=O)[O-])cc2s1)NCC1CCCO1 (stereo not given)	-7.2	nt	-4%	5%[15.4 µM]	3	14	6%
CC(C)C1Cc2c(C#N)c(N)sc(=S)c2CO1 (stereo not given)	?	-1.2%	-25%	51%[15.4 µM]	-3	8	28µM*
O=C(OCCOCCN=C1NS(=O)(=O)c2ccccc21)C1CC(=O)N(c2ccccc2)C1 (stereo not given)	6.0	0.6%	-5%	?	3	5	20%
CC(=O)Nc1ccc(S(=O)(=O)NNC(=O)CCC(=O)Nc2cc(C)ccc2C)cc1	nt	0.6%	-12%	-15%	-9	12	-16%
Cc1ccc2nc(NC(=O)CSCC(=O)OCC(=O)c3ccc(Br)cc3)sc2c1	11	-2.0%	-5%	-3%[15.4 µM]	nt	-17	6%
CCOc1ccc(/C=C/c2nc(C#N)c(NCCCOC)o2)cc1	-0.9	-1.6%	-1%	-16%[15.4 µM]	-6	10	-5%
CC(=O)c1cnc2cc(-c3ccccc3)nn2c1C	-1.2	-2.2%	-2%	14%	-3	-12	-7%
COc1ccc(S(=O)(=O)Nc2cc(C)c(O)c(S(=O)(=O)c3ccccc3)c2)cc1	2.1	-4.2%	-20%	?	4	11	4%

Only TRPV1 potentiator and gsp antagonist, for 7 of the compounds above:
SMILES,TRPV1 potentiator,gsp antagonist
COCCCNC(=O)C(C#N)c1nc2ccccc2nc1N1CCCC1 (stereo not given),1,8%
CCOC(=O)c1c(C)oc2cc(Br)c(OCC(N)=O)cc12,7,12%
O=C(Cc1ccccc1)Nc1cccc(N2C(=O)C=CC2=O)c1,-10,9%
O=C1N=C2N(CCN3CCCCC3)c3ccccc3N2/C1=C\c1ccc([N+](=O)[O-])o1,-3,nt
COc1cccc(NC(=O)C2CCCN2C(=O)NC2CCCCC2)c1 (stereo not given),3,-31%
Cc1cc(=O)oc2cc(Oc3ccc([N+](=O)[O-])cc3[N+](=O)[O-])ccc12,3,-10%
COc1ccc(-n2c(=O)/c(=C\c3cccs3)s/c2=C(/C#N)C(=O)NCCN2CCOCC2)cc1,0,-7%

Continuation.
SMILES	Menin MLL FP FL	ClpP mod	gsp antagonist	gsp ag	TRPV1 potentiator	TRPML1 inh	Sfp PPTase inh
COc1cc(O)c2c(=O)c3c(O[C@H]4O[C@@H](CO)[C@H](O)[C@@H](O)[C@@H]4O)ccc(O)c3oc2c1	nt	2.6%	5%	nt	nt	24	nt
COc1cc(-c2nc3ccccn3c2NCc2ccccc2)ccc1SC1CCCCC1	nt	?	-25%	25%	5	12	nt
CCOC(=O)c1ccc(NC(=O)c2cc(OC)c(OC)c(OC)c2Br)cc1	4.9	0.3%	?	23%	6	-10	11%
O=C(c1ccncc1)N1CCN(c2cccc(C(F)(F)F)c2)CC1	0.4	-2.1%	0%	?	-24	-10	12%
CCc1ccc2[nH]c3nc(N/N=C/c4cccc(O)c4)nnc3c2c1	-0.3	0.0%	5%	3%[15.4 µM]	1	11	10%
CCOC(=O)C1=C(c2ccccc2)ON(C)C1c1ccccc1 (stereo not given)	2.8	0.2%	3%	?	21	9	1%
COc1ccc(N2C(=O)/C(=C/c3ccc([N+](=O)[O-])cc3)N=C2C)cc1	0.8	nt	-2%	19%[15.4 µM]	-1	28	-2%
CCn1cc(C(=O)NCCCN(C)C)c(=O)c2cc(F)c(N3CCN(C)CC3)cc21	1.8	?	8%	-51%[inhibitor]	11	31	20%
O=C(c1ccccc1)c1ncc[nH]1	-6.4	nt	12%	27%	5	-13	13%
CN(C)/C=C\C(=C/C(=O)C(F)(F)F)Nc1ccccc1Oc1ccccc1	?	nt	-7%	-1%	-8	1	45µM*
C=CCc1ccc(OCC(O)CN2CCCCC2C)c(OC)c1 (stereo not given)	3.4	-0.8%	4%[15.4 µM]	-18%	12	-6	-6%
Clc1ccc(CSc2snnc2-c2ccccc2)cc1	-3.7	-1.3%	?	-7%	29	71	-2%
Cc1sc2ccccc2c1CNC[C@H]1O[C@@H](n2ccc(N)nc2=O)[C@H](O)[C@@H]1O	nt	-0.9%	nt	-51%[inhibitor]	nt	-20	nt
CCOc1cc(C2NC(=O)NC(O)(C(F)(F)F)C2C(=O)c2ccccc2)ccc1OC (stereo not given)	0.0	-3.0%	-1%	-6%	?	1	16%
COc1ccc(/C=N/NC(=O)c2cc3c(OC)ccc(OC)c3[nH]2)cc1O	-2.4	nt	11%	?	14	-7	-13%
Cn1cc([N+](=O)[O-])c(C(=O)Nc2ccc(C(=O)N3CCCCC3)cc2)n1	-1.1	-1.5%	10%	0%[15.4 µM]	0	8	35%
Cc1cc(C)c(S(=O)(=O)N2CCN(C(=O)N3CCCCC3)CC2)c(C)c1	-0.6	-2.4%	-5%	-3%	-11	-15	-7%
Cn1ncc(C#N)c1NC(=O)c1nn2cccnc2c1Cl	-0.3	-2.0%	-9%	-9%	-5	-10	15%
COc1ccc([C@@H]2C[C@H]3[C@@H](CN2S(=O)(=O)c2ccccc2)C(=O)C[C@@H](c2ccccc2)N3S(=O)(=O)c2ccc(C)cc2)cc1	nt	-0.6%	nt	-68%[inhibitor]	nt	-6	nt
CC(C)CNS(=O)(=O)c1ccc(CCC(=O)N2CCOCC2)cc1	2.2	1.1%	3%	-20%	3	3	19%
CCC(C)(C(=O)NC1CCCCC1)N(C)C(=O)c1ccccn1 (stereo not given)	5.8	-4.1%	5%	-10%	-20	8	31%[activator]
CS(=O)(=O)Nc1ccc(-c2cn3cccnc3n2)cc1	-27	4.5%	6%	16%	-2	2	-6%
COc1ccc(OC)c(CN2CCN(C(=O)c3cc(S(=O)(=O)Nc4ccccc4OC)ccc3C)CC2)c1	nt	1.0%	?	4%[15.4 µM]	26	7	-4%
CCOc1ccc(NC(=O)CCC(=O)n2nc(C)cc2C)cc1	0.1	nt	nt	nt	-8	nt	-11%
CC12CCC(C/C1=N/O)C2(C)C (stereo not given)	4.3	0.3%	7%	nt	?	nt	0%

Ordered by molar mass (highest first): three of the compounds above.
SMILES	Menin MLL FP FL	ClpP mod	gsp antagonist	gsp ag	TRPV1 potentiator	TRPML1 inh	Sfp PPTase inh
Cc1cc(C)c(S(=O)(=O)N2CCN(C(=O)N3CCCCC3)CC2)c(C)c1	-0.6	-2.4%	-5%	-3%	-11	-15	-7%
COc1ccc(/C=N/NC(=O)c2cc3c(OC)ccc(OC)c3[nH]2)cc1O	-2.4	nt	11%	?	14	-7	-13%
CC12CCC(C/C1=N/O)C2(C)C (stereo not given)	4.3	0.3%	7%	nt	?	nt	0%

Further results:
SMILES	Menin MLL FP FL	ClpP mod	gsp antagonist	gsp ag	TRPV1 potentiator	TRPML1 inh	Sfp PPTase inh
CC(C)(C)N(Cc1ccccc1)C(=O)COC(=O)CN1C(=O)NC2(CCCC2)C1=O	-1.2	-0.7%	-1%	-12%	-7	6	-3%
CC(C)CNC(=S)N(Cc1ccco1)Cc1cc2cc3c(cc2[nH]c1=O)OCCO3	7.6	32µM*	?	0%	-5	10	5%
C=CCn1c(COc2ccccc2F)nnc1SCCN1C(=O)c2ccccc2C1=O	-0.6	-2.8%	?	0%[15.4 µM]	17	-14	-5%
Cc1ccc(/C=N/n2cc(-c3ccccc3)[nH]c2=S)s1	-2.4	-15%	-31%	-14%	-1	11	32µM*
FC(F)(F)c1ccc(NCCc2ccccc2)nc1	-3.1	nt	10%	11%	-19	-4	-3%
COc1ccc(C2/C(=C(\O)c3ccc4c(c3)OCCO4)C(=O)C(=O)N2Cc2cccnc2)cc1OC (stereo not given)	nt	-0.5%	13%	24%	-1	1	4%

This is a random part of the collection. About 4.9% of those tested had a hit in this group.
